Source: PubChem (ICCB-Longwood Screening Facility, Harvard Medical School)
AID504770: E. coli YBA685 growth inhibition, screen for V. cholerae RctB inhibitors | E. coli YBA685 rctB-dependent plasmid, OD600 growth, 3 h; stronger effect = lower value | 130,000 compounds, 0.27% hits | z-score (concentration not given with the values);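 active = z-score under -2 on both plates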;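 note: wells of about 30 µL received 100 nL stock; score is relative to mean and SD of the test wells; the first replicate is given; strong numbers were not always called active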
Ba CapD inh: inhibitors of Bacillus anthracis CapD enzyme; purified CapD enzyme, fluorescence intensity read-out; stronger effect = lower value; some hits fall short of the stated cut; z-score (no concentration beside the values); 140,000 compounds, 0.23% hits;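 active = z-score under -4 in either of two replicates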;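 note: stock transfer was 100 nL into about 40 µL; score is relative to mean and spread of the plate; one replicate is shown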
The depositor's hits bear a star; · = not tested or not shown; & = joins results of further samples.

No.	molecule	AID504770	Ba CapD inh
1	O=[N+]([O-])c1cc(CN2CCN(c3cccc(C(F)(F)F)c3)CC2)c(O)c2ncccc12	·	-0.96
2	CCn1c(CSc2ncnc3sccc23)nc2cc(S(=O)(=O)N(C)C)ccc21	-0.2	·
3	O=C(Nc1nnc(-c2ccccc2Cl)s1)c1ccc(S(=O)(=O)N2CCCCC2)cc1	·	0
4	COc1ccc(N2CCN(C(=O)CCC(=O)O)CC2)cc1	·	-0.46
5	Cc1cc(=O)oc(C)c1C(=O)NCCCN1CCN(c2ccc(F)cc2)CC1	0.95	-0.7
6	CC(C)(N)Cc1ccc(Cl)cc1	-0.25	-0.11
7	N#C/C=C/N1CCN(C(c2ccccc2)c2ccccc2)CC1	-0.05	·
8	CN(CCC(=O)O)Cc1cccnc1	-0.3	·
9	O=C(OCCC1(c2ccccc2)C(=O)c2ccccc2C1=O)c1cc2ccccc2oc1=O	0.75	2.7
10	CC1(C)CC(=O)c2cc(O)ccc2O1	-0.2	-0.33
11	CCOc1ccc2c(c1)C(=C1SC(C(=O)OC)=C(C(=O)OC)S1)C(=S)C(C)(C)N2C(=O)c1ccc(Cl)c([N+](=O)[O-])c1	·	-0.59
12	Cc1cccc(CN2CCN(C(c3ccccc3)c3ccc(Cl)cc3)CC2)c1 (centres undefined)	0.2	0.22&-0.57
13	Cc1ccc(C)c(NC(=O)C2C(=O)NC3(C)CC2c2ccccc2O3)c1 (centres undefined)	·	-0.15
14	Clc1ccc(C2NCCS2)cc1 (centres undefined)	-1.2	·
15	CC(=O)N(CCC(c1ccccc1)c1ccco1)Cc1ccc(F)cc1 (centres undefined)	0.8	0.38
16	Cc1cccc(N/C(Sc2ccccc2)=C(/C(Cl)=C(Cl)Cl)[N+](=O)[O-])c1	·	-0.56
17	O=C(CSc1cccc[n+]1[O-])NCC1CCCO1 (centres undefined)	-0.1	0.065
18	COc1cc(C(=O)Nn2c(O)c(C3=c4ccc(Br)cc4=NC3=O)sc2=S)ccc1O	·	0.43
19	Cn1nc(-c2ccc(C(=O)NCC3CCCO3)cc2)c2ccccc2c1=O (centres undefined)	1.5	0.32
20	Cc1sc2ncnc(N3CCN(CCO)CC3)c2c1C	0.45	0.11
21	CCOc1ccc2c(c1)-c1c(ssc1=S)C(C)(C)N2C(=O)CSc1nnc(C)s1	·	0.15
22	Cc1c(Cc2ccccc2)c(Cl)n2c(nc3ccccc32)c1C#N	-0.05	4.5
23	CCS(=O)(=O)N1Cc2ccccc2CC1C(=O)NCCc1ccccc1 (centres undefined)	0.75	·
24	CCCCCCC#CCOC(=O)NNC(=O)c1ccc(OC)cc1	·	-1.3
25	O=C(CCCn1c(=O)[nH]c2ccsc2c1=O)N1CCCCC1	-0.3	-0.92

The list goes on:
No.	molecule	AID504770	Ba CapD inh
26	COC(=O)c1nn(-c2ccc(Cl)cc2)c(=O)cc1Sc1cccc[n+]1[O-]	·	0.55
27	N#Cc1c(-c2ccccc2)nc2sccn12	2.2	-0.07
28	Cc1ccc(CNC(=O)CSc2nc(N3CCCCC3)nc(N3CCCCC3)n2)cc1	-0.8	0.075
29	COc1cccc(NC(=S)N(CCN(C)C)C(C)c2ccncc2)c1 (centres undefined)	-0.4	-0.075
30	COc1ccc(/C=N/NC(=O)COc2ccc([N+](=O)[O-])cc2)c(OC)c1C	·	-0.33
31	N=c1c(C(N)=O)cc2c(=O)n3ccccc3nc2n1Cc1ccccc1	-1.8	·
32	O=S(=O)(c1ccc2c(c1)OCCO2)N1CCC(O)(c2ccc(Cl)cc2)CC1	-0.55	·
33	CSc1sc(C(=O)NNC(=O)CCC(C)C)c2c1C1(CCC2)SCCS1	·	-0.47
34	CCOC(=O)C(C)Sc1nc2c(cnn2-c2ccc(Cl)cc2)c(=O)[nH]1 (centres undefined)	·	1.9
35	Oc1[nH]c2ccc(Br)cc2c1N=NC(=S)NCC1CCCO1 (centres undefined)	0	·
36	COc1ccc(N2C(=O)C3C(c4ccc(C)cc4)OC4(C(=O)c5ccccc5C4=O)C3C2=O)cc1 (centres undefined)	·	0.025
37	O=C(Nc1ccc(F)cc1F)N(C1CC1)C1CCN(Cc2ccccc2)CC1	·	-0.61
38	O=C(CSc1nc(-c2ccccc2)cc(=O)[nH]1)N1CCc2ccccc21	-0.25	0.57
39	O=C(O)C1CCCCC1C(=O)N1CCc2ccccc21 (centres undefined)	-0.45	·
40	CCCNS(=O)(=O)c1ccc(Cl)cc1I	0.45	-0.11
41	O=C(NC1CCCCC1)c1cc(-c2ccc(Cl)cc2)cs1	·	0.21
42	Cc1c(Cc2c(Cl)cccc2Cl)c(=O)ccn1Cc1ccccc1Cl	·	-0.66
43	CNC(=O)CCCc1cn(Cc2ccccc2Cl)c2ccccc12	-0.45	0.35
44	O=S(=O)(CCSCCO)c1ccc(Cl)cc1	·	0.085
45	O=C(CCc1ccccc1)N1CCN(CCO)CC1	1.4	-0.04
46	Fc1ccc(-c2csc(Cc3nnc4n3CCCCC4)n2)cc1	-1.2	-0.2
47	CC(=O)OC1=C2C(=Nc3c(c(=O)n(C)c(=O)n3C)C2c2cccc([N+](=O)[O-])c2)c2ccccc21 (centres undefined)	·	-0.32
48	O=C(c1ccccc1O)N1CCOCC1	0.85	-0.095
49	CCN(CC)C(=O)Cn1c(=O)oc2ccccc21	-0.35	0.2
50	COc1cc(OC)nc(NC(=O)CSc2nc3ccccc3s2)n1	-0.45	0.2

Next structures:
no.	Structure	AID504770	Ba CapD inh
51	N#Cc1ccc(OCn2nnc3ccccc3c2=O)cc1	-0.05	·
52	COc1ccc(C(CNC(=O)Nc2ccccc2)N2CCN(C)CC2)cc1 (centres undefined)	-0.5	·
53	CC(C)CC(NS(=O)(=O)c1cccs1)C(=O)O (centres undefined)	-0.1	0.95
54	Cc1ccc(C(=O)N/C(=C\c2ccco2)C(=O)N2CCN(c3ccccn3)CC2)cc1C	·	0.11
55	CCC1CCCCN1C(=O)c1ccc(OC)cc1 (centres undefined)	-0.55	-0.12
56	O=C(CS(=O)(=O)c1ccccc1)N1CCc2ccccc21	-1.1	-0.65
57	COc1cccc(CNC(=O)CN(C)S(=O)(=O)c2ccc3c(c2)n(C)c(=O)c(=O)n3C)c1	0.95	0.77
58	Cn1c(CC2Sc3ccccc3NC2=O)nnc1SCC(=O)c1ccccc1 (centres undefined)	0.25	-0.76
59	O=C(NC(C(=O)NN1S(=O)(=O)c2ccccc2S1(=O)=O)C12CC3CC(CC(C3)C1)C2)c1ccc([N+](=O)[O-])cc1 (centres undefined)	·	0
60	COc1cc(C(=O)N2CCN(C(=O)Cc3ccccc3)CC2)cc(OC)c1OC	0.3	0.73

(further entries)
no.	Structure	AID504770	Ba CapD inh
61	Cc1cc2c(NC(=O)CCCC(=O)O)cccc2nn1	-0.2	-1.3
62	Fc1ccc(-c2cc3c(nn2)Nc2ccccc2N3)cc1	3	-0.26
63	Cc1cc(C)n2c(SCCC(C)C)nnc2n1	0.4	0.21
64	CCn1c(C(=O)Nc2ccc(C(C)C)cc2)cc2sc(Cl)cc21	0	-0.28
65	Cc1ccc(S(=O)(=O)N2C=CC3C(=O)C(Br)CCC32)cc1 (centres undefined)	·	-1
66	Cc1cc(/C=C2\C(=O)NC(=S)N(C)C2=O)c(C)n1C1CC1	0.95	0.42
67	Cc1nc(-c2ccc3c(c2)CCN3Cc2nnc(-c3ccco3)o2)cs1	1.1	·
68	Cc1ccc(C2C(C#N)=C(N)Oc3c2c(=O)oc2ccccc32)o1 (centres undefined)	0.65	0.78
69	O=C(CN1C(=O)/C(=C/c2ccccc2)SC1=S)OC1CCCCC1	-0.05	-0.1
70	C=CCn1c(-c2ccccc2)nn(CN2CC(C)OC(C)C2)c1=S (centres undefined)	1.1	0.02

(further entries)
no.	Structure	AID504770	Ba CapD inh
71	CCOC(=O)c1c(C)n(C2CC2)c2ccc(O)cc12	0.45	-0.24
72	COc1ccc(N2CCN(C(=S)C3CCCCC3)CC2)cc1	0.15	·
73	CCC(Sc1nc2n[nH]c(C)c2c(=N)n1-c1ccc(Br)cc1)C(=O)NCCOC (centres undefined)	·	0.43
74	O=C(c1ccc(F)cc1)n1nccc1-c1csc(-c2ccccc2)n1	0.5	0.4
75	Cc1ccc(NC(=O)C2CC(=O)N(Cc3ccco3)C2)cc1 (centres undefined)	2.4	-0.59
76	FC(F)(F)c1nc2ccccc2n1CCOc1ccccc1	-0.2	0.15
77	O=C(CSc1nc2c(sc(=S)n2CC2CCCO2)c(=O)n1-c1ccc(F)cc1)Nc1nccs1 (centres undefined)	·	-0.62
78	O=C(NC1(C(=O)Nc2cccc(Cl)c2)CCCCC1)c1ccc(Cl)cc1	·	-0.34
79	CN(CC(=O)Nc1ccc(Cl)cc1)C(=O)c1ccc(OC(F)F)cc1	2	·
80	CCN(C(=O)c1ccc2c(SCC(=O)O)c3c(nc2c1)CCC3)c1ccccc1C	-0.85	0.27

Next records
no.	Structure	AID504770	Ba CapD inh
81	O=C(CN1CCN(S(=O)(=O)N2CCCCC2)CC1)Nc1ccc(Br)cc1	0.85	·
82	C[N+]1(CCCl)CC[N+](C)(CCCl)CC1 (centres undefined)	-0.35	0.02
83	COc1cccc(-c2nc(-c3ccc(O)cc3)[nH]c2-c2cccc(OC)c2)c1	·	42
84	CC(NC(=O)C1CCN(c2ncccn2)CC1)c1ccncc1 (centres undefined)	2.3	7.6
85	COc1c(C)cccc1C(=O)Nc1cc(Cl)ccc1N1CCOCC1	0.55	-0.41
86	COCCNC(=O)c1nc(Nc2ccc(F)cc2F)c2ccccc2n1	-0.6	-0.55
87	CC(C)(C)C(O)CSc1nc2ccccc2[nH]1 (centres undefined)	-1	0.09
88	CC(C)CCNC(=O)c1ccc2nc(-c3cccs3)c(-c3cccs3)nc2c1	-1	0.51
89	CC1CCN(c2nc3ccccc3nc2C(C#N)S(=O)(=O)c2cccc(Cl)c2)CC1 (centres undefined)	0.4	·
90	c1ccc(C2CCC(NCCN3CCOCC3)CC2)cc1 (centres undefined)	-0.95	-0.22

Remaining list, next part:
no.	Structure	AID504770	Ba CapD inh
91	O=C(CSc1cnccc1C(F)(F)F)NOCc1ccccc1	·	-0.22
92	CCCCC1(COC(=O)CCC(=O)O)C(=O)N(c2ccccc2)N(c2ccccc2)C1=O	-0.1	-0.15&-0.1
93	NC(=O)C1CCN(CC(O)c2ccccc2)CC1 (centres undefined)	-0.65	1.3
94	O=C(NC1C2CCCC1CN(C1CC1)C2)c1ccc(Cl)cc1 (centres undefined)	-0.75	·
95	CC(C)(C)c1[nH]nc2c1C(c1ccc(OC(=O)N3CCOCC3)cc1)C(C#N)=C(N)O2 (centres undefined)	·	-0.03
96	COc1cccc(C2c3[nH]c4ccccc4c3CCN2S(=O)(=O)c2cc(F)c(Br)cc2F)c1 (centres undefined)	·	0.59
97	NC(=O)C1CCN(C(=O)C2CC(c3ccccc3Cl)=NO2)CC1 (centres undefined)	-0.55	-0.035
98	COC(CNC(=O)c1cc(-c2ccccn2)nc2ccc(S(=O)(=O)N3CCC(C)CC3)cc12)OC	-0.25	-0.085
99	CC1CC(C)(C)NC(=S)N1CCC(=O)Nc1ccc2c(c1)OCCO2 (centres undefined)	·	0.38
100	COc1ccc(C2N3CCc4ccccc4C3CN2S(=O)(=O)c2ccc(C)cc2)cc1 (centres undefined)	·	0.045

Continuation:
no.	Structure	AID504770	Ba CapD inh
101	CC(=O)Nc1ccc(S(=O)(=O)N(c2ccccc2C(F)(F)F)S(=O)(=O)c2ccc(NC(C)=O)cc2)cc1	·	0.11
102	CCCN1C(=O)/C(=C2\SC(=S)N(NC(=O)c3ccc(C)cc3)C2=O)c2ccccc21	·	0.085
103	O=c1[nH]c2ccc(F)cc2c(O)c1-c1ccccc1	-0.5	3.5
104	Nc1ncc(-c2ccncc2)c(-c2ccc(C(F)(F)F)nc2)n1	·	-0.24
105	Cc1ccc2c(c1)C(C)CC(C)(C)N2C(=O)Nc1ccccc1 (centres undefined)	·	0.86
106	c1ccc2c(C3CCNCC3)c[nH]c2c1	·	-0.77
107	CN(C)c1ccc(C(CNC(=O)CSc2nnc(-c3ccc(F)cc3)o2)c2c[nH]c3ccccc23)cc1 (centres undefined)	0.25	·
108	CCOC(=O)c1c(C)oc2c1c(CN1CCN(CC)CC1)c(O)c1ccccc12	-0.1	-0.41
109	CN1C2CCC1CC(N=Cc1c(F)cccc1Cl)C2 (centres undefined)	-0.05	0.67

Entries shown so far that have an NH in an aromatic ring:
no.	Structure	AID504770	Ba CapD inh
25	O=C(CCCn1c(=O)[nH]c2ccsc2c1=O)N1CCCCC1	-0.3	-0.92
34	CCOC(=O)C(C)Sc1nc2c(cnn2-c2ccc(Cl)cc2)c(=O)[nH]1 (centres undefined)	·	1.9
35	Oc1[nH]c2ccc(Br)cc2c1N=NC(=S)NCC1CCCO1 (centres undefined)	0	·
38	O=C(CSc1nc(-c2ccccc2)cc(=O)[nH]1)N1CCc2ccccc21	-0.25	0.57
73	CCC(Sc1nc2n[nH]c(C)c2c(=N)n1-c1ccc(Br)cc1)C(=O)NCCOC (centres undefined)	·	0.43
83	COc1cccc(-c2nc(-c3ccc(O)cc3)[nH]c2-c2cccc(OC)c2)c1	·	42
87	CC(C)(C)C(O)CSc1nc2ccccc2[nH]1 (centres undefined)	-1	0.09
95	CC(C)(C)c1[nH]nc2c1C(c1ccc(OC(=O)N3CCOCC3)cc1)C(C#N)=C(N)O2 (centres undefined)	·	-0.03
96	COc1cccc(C2c3[nH]c4ccccc4c3CCN2S(=O)(=O)c2cc(F)c(Br)cc2F)c1 (centres undefined)	·	0.59
103	O=c1[nH]c2ccc(F)cc2c(O)c1-c1ccccc1	-0.5	3.5
106	c1ccc2c(C3CCNCC3)c[nH]c2c1	·	-0.77
107	CN(C)c1ccc(C(CNC(=O)CSc2nnc(-c3ccc(F)cc3)o2)c2c[nH]c3ccccc23)cc1 (centres undefined)	0.25	·
